# Screening results as filed in PubChem BioAssay.
# rRNA inh HTS = reduced GFP signal of wild-type E. coli, primary screen, bacterial rRNA inhibitor project, GFP/RFP fluorescence, OD600, single point | E. coli WT GFP vs humanized-ribosome RFP mutants, 24 h; hits give low values; DMSO median 0, no signal -100 | GFP signal change (wild-type ribosome), % (test concentration not listed) | hit rate 1.6% among 350,000 | AID 720706, 2013;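 active means significant combined selectivity score with lowered wild-type GFP, culture density cut under 30%, mutant RFP and density less affected; inactive means any of these conditions unmet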; further: one replicate is shown; some compounds called inactive have numbers as strong as hits
# FGF22 binding = binders of human FGF22 protein, primary screen, FGF22 synaptogenesis inhibitor project, biophysical, thermal shift, single point; Fibroblast growth factor 22 (Homo sapiens), Q9HCT0; recombinant FGF22 thermal shift, SYPRO orange fluorescence; percent of sucrose octasulfate shift, DMSO zero; hit rate 1.5% among 340,000; calls only at 9.99 µM;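 active means melting point raised past a set limit in the mean and every replicate; three in four hits are not shown here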
# Target sequence (Q9HCT0 whole entry, looked up): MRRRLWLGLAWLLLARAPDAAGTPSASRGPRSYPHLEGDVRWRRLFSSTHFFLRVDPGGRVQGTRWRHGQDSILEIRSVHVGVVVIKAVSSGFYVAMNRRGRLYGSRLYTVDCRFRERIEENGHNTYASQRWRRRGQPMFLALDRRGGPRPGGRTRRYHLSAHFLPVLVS
# rRNA inh HTS OD600 = recorded beside rRNA inh HTS, whose call it bears; OD600 change, %; measured here: OD600 growth;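 optical density of the mix in the first replicate; 0 = DMSO median and -100 = no signal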
# rRNA inh HTS RFP = second read-out of rRNA inh HTS, no call of its own (marks repeat the call); RFP signal change, %; measured here: RFP humanized mutant strains;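 first replicate; 0 = DMSO median and -100 = no signal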
# An asterisk follows results filed as active; i = inactive; . = not tested or not shown.
SMILES,rRNA inh HTS,rRNA inh HTS OD600,rRNA inh HTS RFP,FGF22 binding
O=C(c1cccnc1)N1CC(=O)N2[C@H](CO)[C@@H](c3ccc(-c4ccccc4F)cc3)[C@H]2C1,3,7,0.3,i
CCOC(=O)C1=C(C(=O)OCC)C2N(Cc3ccc(Br)cc3)c3ccccc3[C@@]23C[C@@H](C(=O)OC)N(S(=O)(=O)c2ccc(C(F)(F)F)cc2)C3=N1 (stereo partly drawn),5,10,1.8,.
C[C@@H]1CCCCO[C@@H](CN(C)C(=O)Nc2ccc3c(c2)OCO3)[C@@H](C)CN([C@@H](C)CO)C(=O)c2cc(NC(=O)Cc3ccccc3)ccc2O1,1,-4,-1.2,i
COc1ccc(NC(=O)N(C)C[C@@H]2Oc3ncc(C#CC(C)C)cc3C(=O)N([C@@H](C)CO)C[C@@H]2C)cc1,-2,5,-2.1,i
O=C(C[C@@H]1C[C@H]2c3cc(NC(=O)NC4CCCC4)ccc3O[C@H]2[C@@H](CO)O1)NC1CCCC1,0,6,0.4,i
O=C(C[C@@H]1CC[C@@H]2[C@H](COC[C@H](O)CN2S(=O)(=O)c2cccc(Cl)c2)O1)NCCCN1CCOCC1,2,-4,-7.2,i
CO[C@@H]1CN(C)C(=O)c2ccc(NC(=O)c3cccc(F)c3)cc2OC[C@H](C)N(CC2CC2)C[C@@H]1C,4,6,1.8,i
C[C@@H]1CN([C@@H](C)CO)C(=O)c2cc(C#CC3CC3)cnc2O[C@H]1CN(C)C(=O)Cc1ccccn1,5,10,-3.1,i
CN(C)C(=O)[C@H]1[C@H](CO)[C@H]2Cn3c(ccc(-c4ccccc4)c3=O)[C@@H]1N2Cc1ccccn1,-1,8,-1.0,i
COc1ccc(-c2ccc3c(c2)O[C@H](CN(C)C(=O)Nc2ccccc2F)[C@H](C)CN([C@H](C)CO)S3(=O)=O)cc1,0,-8,-0.3,i
C[C@H](CO)N1C[C@H](C)[C@@H](CN(C)Cc2ccc(C(=O)O)cc2)Oc2ccc(NS(=O)(=O)c3cn(C)cn3)cc2CC1=O,1,-3,-2.5,i
COCCNC(=O)C[C@H]1C[C@H]2c3cc(NC(=O)Nc4ccc(C(F)(F)F)cc4)ccc3O[C@H]2[C@@H](CO)O1,0,-2,-0.7,i
COCC(=O)Nc1ccc2c(c1)[C@@H]1C[C@H](CC(=O)N(C)C)O[C@H](CO)[C@@H]1O2,4,9,-3.4,i
CNC(=O)C[C@H]1CC[C@H]2[C@@H](COC[C@H](O)CN2C(=O)c2ccccn2)O1,2,-3,-2.6,i
C[C@@H]1CCCCO[C@@H](CN(C)S(C)(=O)=O)[C@H](C)CN([C@@H](C)CO)C(=O)c2cc(NC(=O)Nc3ccc(C(F)(F)F)cc3)ccc2O1,-4,-15,1.6,i
C[C@@H]1CCCCO[C@@H](CN(C)S(C)(=O)=O)[C@@H](C)CN([C@H](C)CO)C(=O)c2cc(NS(=O)(=O)c3ccc(Cl)cc3)ccc2O1,0,6,-1.3,i
CCCNC(=O)Nc1ccc2c(c1)OC[C@H](C)NC[C@H](C)[C@H](OC)CN(C)C2=O,1,-3,-0.6,i
O=C(C[C@H]1C=C[C@@H](NC(=O)C2CCC2)[C@H](CO)O1)NC1CCC1,1,0,-1.0,i
CCCN(C)C[C@@H]1Oc2cc(C#Cc3cccc(OC)c3)ccc2S(=O)(=O)N([C@H](C)CO)C[C@@H]1C,-2,7,3.2,i
CCCC(=O)N1CC2(C1)CN(C(=O)Nc1cccc(F)c1)[C@@H](CO)c1c2c2ccc(OC)cc2n1C,0,-13,4.5,i
COc1ccc(S(=O)(=O)Nc2ccc3c(c2)C(=O)N([C@@H](C)CO)C[C@@H](C)[C@H](CN(C)S(C)(=O)=O)O3)cc1,5,4,0.0,i
C[C@@H]1CN([C@H](C)CO)C(=O)c2cc(-c3cccc(F)c3)cnc2O[C@@H]1CN(C)C(=O)Nc1cc(F)ccc1F,-3,-6,2.8,i
O=C(Nc1ccc2c(c1)[C@H]1C[C@H](CC(=O)N3CCCCC3)O[C@H](CO)[C@H]1O2)C1CCOCC1,1,4,-2.6,i
C[C@H](CO)N1C[C@H](C)[C@H](CN(C)C)Oc2c(NS(=O)(=O)c3ccccc3)cccc2C1=O,7,6,-2.1,i
C/C=C/c1cnc2c(c1)C(=O)N([C@@H](C)CO)C[C@@H](C)[C@@H](CN(C)C(=O)NCCC)O2,4,13,-3.8,i
C[C@H](CO)N1C[C@H](C)[C@H](CN(C)Cc2ccccc2)OCCCC[C@H](C)Oc2ccc(NC(=O)Nc3ccc4c(c3)OCO4)cc2C1=O,-10,-46,31,i
C[C@H]1CN([C@@H](C)CO)S(=O)(=O)c2ccc(C#CCN(C)C)cc2O[C@@H]1CN(C)Cc1ccccc1F,-39,-69,-8.6,i
Cc1noc(C)c1S(=O)(=O)N(C)C[C@H]1Oc2ccc(NC(=O)Nc3ccc(F)cc3)cc2CC(=O)N([C@H](C)CO)C[C@H]1C,-4,-2,-2.6,i
CN1C(=O)c2cc(NS(C)(=O)=O)ccc2OC[C@H]2O[C@@H](CC(=O)N3CCOCC3)CC[C@@H]21,1,4,-2.1,i
C[C@@H]1CN([C@@H](C)CO)C(=O)Cc2cc(NC(=O)CCN3CCOCC3)ccc2O[C@H]1CN(C)Cc1ccc(C(=O)O)cc1,3,12,0.5,i
CO[C@H]1CN(C)C(=O)c2ccc(NC(=O)C3CCCC3)cc2OC[C@H](C)N(CCC(F)(F)F)C[C@H]1C,-2,-14,3.3,i
CN(C)CC(=O)N1[C@H](C(=O)Nc2nccs2)[C@@H](CO)[C@@H]2Cn3c(ccc(C4=CCCCC4)c3=O)[C@@H]21,-2,-2,0.5,i
CNC[C@@H]1Oc2c(NS(C)(=O)=O)cccc2C(=O)N([C@H](C)CO)C[C@@H]1C,6,12,1.9,i
C[C@@H]1CN([C@@H](C)CO)C(=O)c2cccc(NC(=O)C3CCOCC3)c2O[C@@H]1CN(C)CC1CCCCC1,4,0,-3.3,i
C[C@@H]1CN([C@@H](C)CO)C(=O)c2cc(NS(=O)(=O)c3cn(C)cn3)ccc2O[C@@H](C)CCCCO[C@@H]1CN(C)C(=O)Nc1cccc2ccccc12,1,-9,-2.4,i
C[C@@H]1CCCCO[C@H](CN(C)Cc2ccc(Cl)c(Cl)c2)[C@H](C)CN([C@@H](C)CO)C(=O)c2cc(NS(=O)(=O)c3ccccc3)ccc2O1,-1,-9,15,i
CCN(C[C@H]1[C@H](c2ccccc2)[C@@H](CO)N1C(=O)COC)S(C)(=O)=O,-1,4,-1.1,i
COCCNC(=O)C[C@@H]1CC[C@H](NC(=O)NC2CCCC2)[C@H](CO)O1,0,3,-0.9,i
CO[C@H]1CN(C)C(=O)c2ccc(NC(=O)c3ccc4c(c3)OCO4)cc2OC[C@@H](C)N(CC2CC2)C[C@@H]1C,3,-1,-0.3,i
C[C@H](CO)N1C[C@H](C)[C@@H](CN(C)C(=O)Nc2ccc(C(F)(F)F)cc2)Oc2c(NS(=O)(=O)c3ccc(Cl)cc3)cccc2C1=O,-2,-8,-3.3,i

# Some of these compounds in order of count of non-hydrogen atoms, ascending.
SMILES,rRNA inh HTS,rRNA inh HTS OD600,rRNA inh HTS RFP,FGF22 binding
CCN(C[C@H]1[C@H](c2ccccc2)[C@@H](CO)N1C(=O)COC)S(C)(=O)=O,-1,4,-1.1,i
CNC[C@@H]1Oc2c(NS(C)(=O)=O)cccc2C(=O)N([C@H](C)CO)C[C@@H]1C,6,12,1.9,i
C[C@H](CO)N1C[C@H](C)[C@H](CN(C)C)Oc2c(NS(=O)(=O)c3ccccc3)cccc2C1=O,7,6,-2.1,i
O=C(Nc1ccc2c(c1)[C@H]1C[C@H](CC(=O)N3CCCCC3)O[C@H](CO)[C@H]1O2)C1CCOCC1,1,4,-2.6,i
C[C@H]1CN([C@@H](C)CO)S(=O)(=O)c2ccc(C#CCN(C)C)cc2O[C@@H]1CN(C)Cc1ccccc1F,-39,-69,-8.6,i
CO[C@H]1CN(C)C(=O)c2ccc(NC(=O)c3ccc4c(c3)OCO4)cc2OC[C@@H](C)N(CC2CC2)C[C@@H]1C,3,-1,-0.3,i
C[C@@H]1CN([C@H](C)CO)C(=O)c2cc(-c3cccc(F)c3)cnc2O[C@@H]1CN(C)C(=O)Nc1cc(F)ccc1F,-3,-6,2.8,i
C[C@H](CO)N1C[C@H](C)[C@@H](CN(C)C(=O)Nc2ccc(C(F)(F)F)cc2)Oc2c(NS(=O)(=O)c3ccc(Cl)cc3)cccc2C1=O,-2,-8,-3.3,i
C[C@@H]1CCCCO[C@H](CN(C)Cc2ccc(Cl)c(Cl)c2)[C@H](C)CN([C@@H](C)CO)C(=O)c2cc(NS(=O)(=O)c3ccccc3)ccc2O1,-1,-9,15,i

# (further entries)
SMILES,rRNA inh HTS,rRNA inh HTS OD600,rRNA inh HTS RFP,FGF22 binding
C[C@@H]1CN([C@H](C)CO)S(=O)(=O)c2ccc(-c3ccc(C(=O)N(C)C)cc3)cc2O[C@H]1CN(C)Cc1ccccc1C(=O)O,5,11,-2.0,i
C[C@@H]1CN([C@@H](C)CO)C(=O)Cc2cc(NS(=O)(=O)c3ccc(Cl)cc3)ccc2O[C@H]1CN(C)C(=O)Nc1cccc2ccccc12,-1,-5,1.9,i
CC(C)NC(=O)Nc1ccc2c(c1)C(=O)N([C@@H](C)CO)C[C@H](C)[C@@H](CN(C)Cc1ccc(Oc3ccccc3)cc1)O2,-5,-35,5.4,i
COc1ccc(S(=O)(=O)Nc2ccc3c(c2)C(=O)N([C@@H](C)CO)C[C@@H](C)[C@@H](CN(C)C(=O)Nc2cccc4ccccc24)OCCCC[C@@H](C)O3)cc1,-1,-2,-1.2,i
CCCNC(=O)N1CC2(CCN(C(=O)c3cnccn3)CC2)c2c([nH]c3cc(OC)ccc23)[C@H]1CO,0,12,-2.8,i
C[C@@H]1CN([C@@H](C)CO)S(=O)(=O)c2ccc(C#Cc3ccccc3F)cc2O[C@@H]1CN(C)C(=O)Cc1ccncc1,-6,-9,6.2,i
CCN(C[C@@H]1[C@@H](c2ccccc2)[C@H](CO)N1S(C)(=O)=O)C(=O)C1CCCC1,2,6,0.0,i
CO[C@H]1CN(C)C(=O)c2ccc(NC(=O)c3cnccn3)cc2OC[C@H](C)N(CC2CC2)C[C@@H]1C,1,0,1.6,i
COCC(=O)N1C[C@@H](C)[C@H](OC)CN(C)C(=O)c2ccc(NC(=O)c3cc(C)on3)cc2OC[C@H]1C,3,11,2.6,i
C[C@@H]1CN([C@@H](C)CO)S(=O)(=O)c2ccc(C#CCN(C)C)cc2O[C@@H]1CN(C)S(=O)(=O)c1cccc(F)c1,-1,-7,0.4,i
Cc1ccc(S(=O)(=O)Nc2ccc3c(c2)C(=O)N([C@@H](C)CO)C[C@@H](C)[C@H](CN(C)S(=O)(=O)c2ccc(F)cc2)O3)cc1,-7,-6,2.7,i
COc1ccc2c3c([nH]c2c1)[C@H](CO)N(Cc1ccccc1F)CC31CCN(CC2CC2)CC1,0,-11,6.8,i
Cc1noc(C)c1NC(=O)Nc1ccc2c(c1)CC(=O)N([C@@H](C)CO)C[C@@H](C)[C@@H](CN(C)S(=O)(=O)c1cccs1)O2,-2,-2,-1.5,i
CC(C)NC(=O)N(C)C[C@@H]1OCCCC[C@H](C)Oc2ccc(NC(=O)Nc3ccc(F)cc3)cc2C(=O)N([C@@H](C)CO)C[C@@H]1C,2,-2,0.5,i
COc1ccc2c3c([nH]c2c1)[C@H](CO)N(C(=O)c1ccc(F)cc1)CC31CN(Cc2cccnc2)C1,-4,0,-1.4,i
C[C@H]1CN([C@@H](C)CO)C(=O)c2ccccc2-c2ccccc2CO[C@@H]1CN(C)C(=O)c1ccc(F)cc1,3,7,-1.8,i
CCCCc1c(-c2ccccc2OC)ncn1Cc1c(Cl)cccc1Cl,-56,-80,-18,i
O=S(=O)(NCC[C@H]1CC[C@@H](NS(=O)(=O)c2cccc(F)c2)[C@H](CO)O1)c1cccc(F)c1,-3,2,-1.1,i
O=C(C[C@@H]1C=C[C@H](NC(=O)CN2CCOCC2)[C@@H](CO)O1)NCCc1ccccc1,3,0,0.8,i
C[C@H]1CN([C@@H](C)CO)C(=O)c2cc(NC(=O)CCN3CCOCC3)ccc2O[C@@H]1CN(C)Cc1ccc(C(=O)O)cc1,3,3,0.2,i
CO[C@@H]1CN(C)C(=O)c2cc(NC(=O)C3CC3)ccc2OC[C@H](C)N(C(=O)c2ccccc2F)C[C@H]1C,2,-4,0.1,i
C[C@@H]1CCCCO[C@H](CN(C)C(=O)Nc2ccc(F)cc2)[C@@H](C)CN([C@H](C)CO)C(=O)c2cc(NS(=O)(=O)c3ccc(F)cc3)ccc2O1,0,0,2.8,i
Cc1ccc(S(=O)(=O)N[C@H]2C=C[C@H](CC(=O)NCc3ccncn3)O[C@H]2CO)cc1,2,-2,-4.1,i
C[C@@H]1CN([C@@H](C)CO)C(=O)c2cccc(NC(=O)C3CC3)c2O[C@H]1CN(C)C(=O)NC1CCCCC1,1,6,-0.2,i
C[C@H]1CN([C@@H](C)CO)C(=O)c2cc(NC(=O)Nc3ccc(F)cc3)ccc2O[C@H]1CN(C)S(=O)(=O)c1ccccc1,-3,0,1.8,i
CN(C)C(=O)C[C@H]1CC[C@@H]2[C@H](COC[C@@H](O)CN2CC2CC2)O1,3,4,-6.8,i
CCCNC(=O)C[C@H]1CC[C@@H]2[C@@H](COc3ccc(NC(=O)c4ccc(C(F)(F)F)cc4)cc3C(=O)N2C)O1,-4,-26,3.3,i

# Only part of the results is shown, so the mix of outcomes need not match the whole.
